# Bioassay records from PubChem.
# Cruzain noTriton – qHTS Assay for Promiscuous and Specific Inhibitors of Cruzain (without detergent); purified cruzain, Z-FR-AMC fluorescence, no detergent; Potency, µM, without a hit: max response, negative = inhibition, most hits filed as inhibitors; actives 2.3% (n = 200,000); AID 1476, 2009;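 also: plate controls were enzyme without inhibitor for no effect and buffer without enzyme for full effect; nearly all actives have a fitted effect of over 40% in size; top concentration of the series not given in the record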
# Target sequence (P25779 123-467 limits assumed): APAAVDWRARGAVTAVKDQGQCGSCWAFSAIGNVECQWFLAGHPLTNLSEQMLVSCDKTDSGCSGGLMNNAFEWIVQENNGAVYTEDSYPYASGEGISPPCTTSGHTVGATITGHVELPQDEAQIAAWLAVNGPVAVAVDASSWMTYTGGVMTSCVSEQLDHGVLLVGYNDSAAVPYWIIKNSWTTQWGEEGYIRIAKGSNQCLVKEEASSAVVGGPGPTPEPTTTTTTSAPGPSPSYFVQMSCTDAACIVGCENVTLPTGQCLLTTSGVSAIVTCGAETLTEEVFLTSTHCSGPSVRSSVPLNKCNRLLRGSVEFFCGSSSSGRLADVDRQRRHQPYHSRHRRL
#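 Purified cruzain at 1.5 nM, pre-incubated 15 min with compound at room temperature in 100 mM sodium acetate pH 5.5, 5 mM DTT, 0.00005% Triton X-100. Reaction started with 2 uM Z-FR-AMC; AMC fluorescence increase over 60 s gives rate.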
# RE007 growth inh – qHTS Assay for Inhibitors of the HIV-1 protein Vpr. S. pombe RE007 Vpr strain, BacTiter-Glo ATP luminescence, 24 h; control for the full effect not named in the record. Potency, µM (titrated, usually from 92.2 µM), inactives show top-dose activity change, negative = less growth. actives 0.21% (n = 360,000). AID 651644, 2012; active = well fitted falling curve with a large enough effect; inconclusive = small, poorly fitted or top-dose-only effect; inactive = no such curve, though single readings can be large or run the other way;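 also: % is scaled to controls: 0 for no effect and ±100 for the full control effect; nearly all actives have a fitted effect of over 50% in size; the assay follows cell death caused by Vpr and the record does not say whether a fall means rescue or toxicity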
#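 Fission yeast strain RE007, carrying one chromosomally integrated HIV-1 vpr copy, was seeded at OD 0.01 in PMG+AL medium with 23 nL pinned compound. After 24 h at 30 °C and 99% humidity, viability was read by BacTiter-Glo luminescence.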
# NS1 inh – qHTS Assay for Inhibitors of Influenza NS1 Protein Function; Potency, µM (highest dose often 46.1 µM), for inactives: at the top dose activity, positive = more growth; actives 0.4% (n = 270,000); S. cerevisiae slowed by influenza A NS1, growth recovery by OD600; AID 2326, 2010; active means well fitted rising curve with a large enough effect; inconclusive means small, poorly fitted or top-dose-only effect; inactive means no such curve, though single readings can be large or run the other way; also: nearly all actives have a fitted effect of over 50% in size
#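 Growth recovery, yeast-based: influenza A NS1 expressed in S. cerevisiae causes slow growth, and suppressors are detected by OD600. The parent strain without NS1 is used as positive control.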
# Marburg entry inh – qHTS for inhibitors of binding or entry into cells for Marburg Virus | actives 1.8% (n = 300,000) | Marburg virus pseudotyped entry inhibition, cell reporter; control for the full effect not named in the record; about a third of the inactives were read at about 46 µM | Potency, µM (series often up to 37.8 µM), for inactives: top-dose activity change, negative = inhibition, usual class: inhibitors; active = well fitted inhibition curve with a large enough effect; inconclusive = small, poorly fitted or top-dose-only effect, or effect the other way; inactive = flat fitted curve, though single readings scatter; tested in HEK293 cells; about a fifth of its hits are not listed in these tables; also: % is scaled to controls: 0 for no effect and ±100 for the full control effect; luciferase read-out
# Lassa entry inh – qHTS for Inhibitors of binding or entry into cells for Lassa Virus; Lassa virus pseudotype entry inhibition, cell reporter; control for the full effect not named in the record; Potency, µM (series often up to 37.9 µM), for inactives: at the highest dose activity change, negative = inhibition, usual class: inhibitors; actives 1.2% (n = 300,000); active means well fitted inhibition curve with a large enough effect; inconclusive means small, poorly fitted or top-dose-only effect, or effect the other way; inactive means flat fitted curve, though single readings scatter; tested in HEK293 cells; also: % is scaled to controls: 0 for no effect and ±100 for the full control effect; nearly all actives have a fitted effect of over 50% in size; luciferase read-out
# Cruzain Triton – qHTS Assay for Promiscuous and Specific Inhibitors of Cruzain (with detergent); Cruzipain (Trypanosoma cruzi), P25779; purified cruzain, Z-FR-AMC fluorescence, 0.01% Triton; Potency, µM, for inactives: max response, negative = inhibition, most hits filed as inhibitors; actives 0.43% (n = 200,000);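 also: plate controls were neutral wells for no effect and buffer without enzyme for full effect; nearly all actives have a fitted effect of over 40% in size; top concentration of the series not given in the record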
#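 Compounds were screened in titration against cruzain (1.5 nM) with 0.01% Triton X-100 to counter colloidal aggregation. Activity was the AMC fluorescence increase over 60 s after adding 2 uM Z-FR-AMC at pH 5.5.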
# 2A StopGo – High Throughput Screening for Foot and Mouth Disease Virus Antivirals. Potency, µM (titrated, usually from 57.9 µM), for the others: at the highest dose signal change, negative = less light. actives 1.2% (n = 410,000). AID 1159524, 2015. human cells with a luciferase reporter of 2A StopGo recoding; control for the full effect not named in the record; active = well fitted falling curve with a large enough effect; inconclusive = small, poorly fitted or top-dose-only effect; inactive = no such curve, though single readings can be large or run the other way; tested in HEK293T cells; also: % is scaled to controls: 0 for no effect and ±100 for the full control effect; nearly all actives have a fitted effect of over 45% in size; luciferase light after 4 h
# SARS PLpro yeast – qHTS of Yeast-based Assay for SARS-CoV PLP; S. cerevisiae expressing SARS-CoV PLpro, growth rescue; control for the full effect not named in the record; Potency, µM (titrated, usually from 32.9 µM), for inactives: at the top dose activity, positive = growth rescue; AID 485353, 2010; actives 0.19% (n = 330,000); active means well fitted rising curve with a large enough effect; inconclusive means small, poorly fitted or top-dose-only effect; inactive means no such curve, though single readings can be large or run the other way; also: 0% is about no effect; nearly all actives have a fitted effect of over 55% in size; growth read by luminescence after 48 h
# An asterisk follows results filed as active; ? = inconclusive; . = not tested or not shown; & = joins results of further samples; [ ] = another dose, or the depositor's remark. Unless noted, calls follow the shape of the dose curve; as a rule, active = well fitted curve in the direction sought with a large enough effect; inconclusive = small, poorly fitted or top-dose-only effect, or another doubt; inactive = no such curve, though single readings can be large; an effect the other way counts as inactive or inconclusive. Potency is read from the fitted curve at half-maximal effect.
# The line under a structure holds: RE007 growth inh	Cruzain Triton	Lassa entry inh	NS1 inh	SARS PLpro yeast	2A StopGo	Cruzain noTriton	Marburg entry inh
- COc1ccc(NC(=O)CN2C(=O)C(c3ccccc3)=NC23CCCCCC3)cc1OC
    -4.7%	-6.2%	-0.2%	-45.2%	-1.6%	?	?	-21.6%
- COc1ccccc1CCNC(=O)c1ccc2nc[nH]c2c1
    -4.6%	.	?	9.7%	-4.1%	7.2%	.	?
- CCOC(=O)c1[nH]c(C)c(CCC(=O)N2CCN(c3ccccc3)CC2)c1C
    .	2.7%	-5.9%[46.1 µM]	.	.	-19.3%	6.9%	.
- COc1ccc(Cl)cc1Nc1nc(NCCO)nc(N2CCCC2)n1
    -2.9%	5.4%	-21.5%	-4.3%	-2.2%	-2.8%	?	-21.4%&-21.4%&-21.4%
- CS(=O)(=O)Nc1ccc(C(=O)Nc2ccc(S(=O)(=O)Nc3nccs3)cc2)cc1
    20.7%	.	4.4%	-9.0%	?	-14.5%	.	13.9%
- O=C(CN1CCN(S(=O)(=O)c2ccc(F)cc2)CC1)Nc1cccc(C(F)(F)F)c1
    -2.1%	0.6%	?	-74.7%	-1.6%	-27.8%	?	?
- C/C(CC(=O)Nc1cc(Cl)ccc1Cl)=N\NC(N)=S
    -10.3%	1µM*	?	10.6%	-9.8%	0.2%	1µM*	?
- COc1cc(Br)ccc1C1C(C(=O)Nc2ccc(C)cc2C)=C(C)Nc2nnnn21 (stereo unspecified)
    .	-3.1%	?	.	.	-12.5%	?	-17.8%[46.1 µM]
- COc1ccc(Cn2c(=O)[nH]c3cc(OC)c(OC)cc3c2=O)cc1
    -0.5%	.	.	0.8%	-1.7%	?	.	.
- COc1ccc(C(=O)NC(=S)NNC(=O)c2ccccc2C)cc1
    6.4%	.	-27.2%	.	.	-6.4%	.	-26.0%
- Nc1c(-c2nc(-c3ccc4c(c3)OCO4)cs2)c2ccccn2c1C(=O)c1ccccc1
    .	-2.9%	8.1%[46.1 µM]	.	.	28.2%	3.98µM*	-0.1%[46.1 µM]
- Cc1cccc(C(=O)NNC(=O)c2ccccc2Br)c1
    -2.6%	.	.	12.3%	-1.5%	16.7%	.	.
- Cn1c(CCC(=O)Nc2cc(S(C)(=O)=O)ccc2Cl)nc2cc(S(=O)(=O)N3CCOCC3)ccc21
    2.8%	.	9.3%	.	0.7%	-6.9%	.	0.1%
- NC(=O)C1CCN(C2=C(NS(=O)(=O)c3ccc(Br)cc3)C(=O)c3ccccc3C2=O)CC1
    -22.1%	.	-4.5%[46.1 µM]	-9.2%	0.2%	-17.9%	.	-17.0%[46.1 µM]
- Cn1c(CCN2CCOCC2)nc2cc(NS(=O)(=O)c3ccccc3)ccc21
    0.6%	.	-5.8%	2.7%	-1.4%	-21.9%	.	-4.7%[46.1 µM]
- CCc1sc(C(=O)Nc2cc(Cl)ccc2N2CCCCC2)cc1C
    2.9%	4.3%	7.6%	3.2%	-1.8%	-6.9%	?	4.9%
- COc1ccc2nc(NC(=O)CCn3cccc3)sc2c1
    -3.0%	1.8%	?	-0.5%	10.4%	30.0%[activator]	-19.7%	?
- CC(C)(C)c1ccc(C(=O)Nc2cc(-c3nc4ccccc4o3)ccc2Cl)cc1
    .	-1.2%	4.0%[46.1 µM]	.	.	-11.6%	?	.
- Cc1cccc(C)c1NC(=O)CN1C(=O)NC(C)(C2CC2)C1=O (stereo unspecified)
    -12.3%	.	1.2%	.	-5.9%	-2.7%	.	?
- CCC(=NCc1ccco1)c1c(O)[nH]c(=O)[nH]c1=O
    8.8%	-2.0%	-1.3%	-1.7%	3.0%	-23.4%	-5.9%	8.7%
- CC(=O)N1CCOc2ccc(S(=O)(=O)N3CCC(C(=O)NCc4ccccc4)CC3)cc21
    -11.1%	.	.	-12.2%	0.4%	-12.4%	.	.
- O=C1CCN(Cc2ccccc2)C(=S)N1
    9.9%	.	15.9%[46.1 µM]	.	.	-3.0%	.	-13.9%[46.1 µM]
- O=C(NC(Cc1c[nH]c2ccccc12)C(=O)O)/C(=C\c1ccc2c(c1)OCO2)NC(=O)c1ccccc1 (stereo unspecified)
    -9.3%	.	15.4%	1.2%	-1.0%	-12.3%	.	21.2%[46.1 µM]
- COC(=O)C(C)N1C(=O)S/C(=C\c2ccc(-c3ccc(C(=O)O)cc3C)o2)C1=O (stereo unspecified)
    -24.1%	.	.	2.1%	-0.6%	?	.	.
- [O-]/[N+](=C\c1ccccc1)[C@@H]1CCCC[C@@H]1/[N+]([O-])=C/c1ccccc1
    5.9%	0.3%	-10.9%	2.1%	1.7%	-8.7%	-4.6%	-11.8%
- Cc1cc(C)c(S(=O)(=O)NC2CCN(Cc3ccccc3)CC2)c(C)c1
    -26.3%	.	.	-8.7%	6.8%	10.9%	.	.
- O=S(=O)(c1cccc2nsnc12)N1CCN(c2ccccc2F)CC1
    -23.2%	.	-5.5%	-9.2%	-0.9%	-16.8%	.	-6.2%[46.1 µM]
- CCOCC(=O)NCc1ccc2c(c1)OCO2
    -16.7%	5.5%	22.6%	1.7%	.	-12.9%	5.1%	-11.6%
- CCn1c(SCC(=O)NC2CC2)nnc1-c1cccc(OC)c1
    6.0%	.	?	9.5%	1.5%	-10.9%	.	?
- O=C(CC1(O)C(=O)N(CCc2ccccc2)c2ccc(Br)cc21)c1ccccc1 (stereo unspecified)
    .	-11.1%	-16.8%[46.1 µM]	.	.	-0.3%	10.7%	?
- CN(C1CCCCC1)S(=O)(=O)c1ccc(-c2ccccn2)s1
    45.3%	.	-33.2%	-5.6%	-0.1%	-11.8%	.	-1.3%[46.1 µM]
- Cc1[nH]c2c(C(F)(F)F)cccc2c1CCN
    19.5%	0.0%	-6.0%	12.9%	0.8%	-19.0%	-3.1%	?
- CC1CCN(C(=O)CSCc2ccc(Cl)cc2)CC1
    16.7%	2.4%	-25.5%	-7.9%	11.0%	9.8%	6.2%	-0.6%
- CN(C)c1ccc(/C=C/c2ccc3ccccc3n2)cc1
    ?	.	.	-7.0%	-4.4%	6.31µM*	.	.
- Cc1ccc(CSCC(=O)N(C)CC(=O)Nc2ccc(Cl)c(Cl)c2)cc1
    0.9%	.	?	.	.	22.5%	.	-6.5%
- CC1=NN(C(=O)c2ccncc2)C(=O)C1N=Nc1ccc2ccccc2c1 (stereo unspecified)
    1.5%	.	?	.	.	27.0%	.	?
- CN(CC(=O)N1CCN(c2ccccn2)CC1)S(=O)(=O)c1ccc2ccccc2c1
    -28.7%	-3.1%	17.9%	-52.3%	-1.5%	.	22.3%	?
- O=C(NCC1CCCN1S(=O)(=O)c1cccs1)c1ccc(Cl)cc1 (stereo unspecified)
    -2.9%	.	-29.0%	.	-1.7%	-19.9%	.	?
- CC(=O)c1cc(C#N)c(SCC(=O)OC(C)C)nc1C
    -11.6%	-3.0%	17.5%	-3.5%	3.1%	-2.7%	-4.0%	-18.0%
- O=c1ccc2cc(S(=O)(=O)Nc3ccccc3F)ccc2o1
    7.4%	.	-28.6%[46.1 µM]	-12.5%	0.5%	15.8%	.	?
- NNC(=O)c1ccc(COc2ccc(Br)cc2)o1
    -21.9%	.	0.9%[46.1 µM]	0.4%	-2.0%	-8.0%	.	?
- O=C(Nc1ccc(F)c(Cl)c1)c1cc(S(=O)(=O)N2CCCc3ccccc32)ccc1F
    .	2.2%	19.3%[46.1 µM]	.	.	-6.4%	?	.
- COC(=O)c1ccccc1S(=O)(=O)N(Cc1cc2ccc(OC)cc2[nH]c1=O)CC1CCCO1 (stereo unspecified)
    -28.1%	-4.8%	-12.1%	?	3.5%	5.5%	19.7%	-15.2%
- Cc1ccc(S(=O)(=O)N(C)c2nc3ccccc3[nH]c2=S)cc1
    6.9%	.	.	4.2%	0.1%	-6.8%	.	.
- COC(=O)c1ccccc1S(=O)(=O)N1CCC(C(=O)OC(C)C(=O)NC(N)=O)CC1 (stereo unspecified)
    3.6%	.	.	-1.1%	0.5%	-2.6%	.	.
- CCN(CC)C(=O)c1cc2cc(Br)ccc2oc1=O
    9.9%	0.9%	4.1%	4.3%	0.4%	7.9%	-6.0%	13.1%
- Cc1nc(SCCC(C)C)c([N+](=O)[O-])[nH]1
    22.6%	0.5%	1.7%	-4.6%	-7.7%	-2.9%	2.9%	13.1%
- O=[N+]([O-])c1ccccc1-c1ccc(/C=N/n2cnnc2)o1
    16.0%	-2.6%	19.4%[14.3 µM]	5.8%	2.9%	2.3%	-14.5%	?
- Cc1cc(C)c(OCC(=O)Nc2nnn(C)n2)c(Br)c1
    11.0%	2.0%	-6.0%	-9.3%	-1.0%	8.8%	13.9%	3.2%[46.1 µM]
- O=C(c1ccc([N+](=O)[O-])cc1)N(Cc1ccc(Cl)cc1Cl)N1C(=O)CCCC1=O
    8.8%	-2.9%	7.5%	-47.7%	-5.1%	-4.4%	-3.8%	-0.3%
- COc1ccc(CNC(=O)CCNC(=O)c2ccc(C(C)(C)C)cc2)cc1OC
    3.5%	.	8.4%	.	-0.7%	-15.2%	.	-0.7%
- CC(=O)N(CN1C(=O)c2ccc([N+](=O)[O-])cc2C1=O)c1ccc(F)cc1
    ?	-8.1%	1.2%	10.4%	-5.8%	.	0.3%	4.9%
- Cc1ccc(OCCC(=O)OCC(=O)Nc2ccc(F)cc2)cc1
    -15.5%	.	-16.6%[46.1 µM]	.	-3.9%	18.8%	.	-12.1%
- CCCn1c(=O)c(Br)cn(-c2ccccc2C)c1=O
    16.4%	.	.	-0.1%	-3.3%	8.3%	.	.
- CCOC(=O)C1(Cc2cccc(OC)c2)CCN(CC2CC=CCC2)CC1 (stereo unspecified)
    -7.8%	.	?	-4.1%	-0.8%	-22.7%	.	?
- CCOc1ccc(S(=O)(=O)N2CCN(C(=O)c3cccnc3)CC2)cc1
    -5.2%	.	-1.1%[46.1 µM]	2.4%	1.6%	-4.6%	.	10.4%[46.1 µM]
